Screening results as filed in PubChem.
HIV Env fusion: HIV envelope-mediated fusion inhibition; AID 651610; hit rate 1.1% among 360,000; HeLa-JRFL Env/CEM21 cell fusion, luciferase; inhibition, % at 12.3 µM;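 active = mean replicate inhibition score of at least 50 and every replicate individually at or above 50; inconclusive = only one of the two criteria met; inactive = mean below 50 and not all replicates reaching 50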;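 note: 0% = plate neutral controls and 100% = maraviroc near 300 nM; one replicate is shown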
CSC inhib: cancer stem cell inhibition; inhibition, % at 7.5 µM; AID 2717; hit rate 1.1% among 300,000; cancer stem cell-like cells viability, luminescence;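 active = mean at 75% or more and at least half the replicates too; inconclusive = mean and replicates disagree; tested in HMLE shEcad cells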;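 note: 0% = median of negative and 100% = median of positive control wells; the first replicate is given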
UUG fidelity: modulators of start codon recognition fidelity in yeast; hit rate 0.13% among 350,000; activity score, % at 18.7 µM; S. cerevisiae UUG-firefly luciferase reporter, luminescence/redox ratio;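 active = replicate mean at a twofold rise or more, about +100% in these data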;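 note: firefly luciferase made from a UUG start codon reports start codon fidelity; reporter light over untreated wells divided by growth signal over untreated wells; some hits fall short of that in this replicate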
PABP FP inh: blocks human PABP binding to poly(A) RNA; fluorescence polarization; inhibition, % at 35 µM; P11940; hit rate 1% among 290,000;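 active = 50% or more with normal probe brightness, or confirmed in later tests; inconclusive = above 50% with abnormal brightness, or retests that disagree; inactive = below 50% or failed in later tests; about a fifth of its hits are not listed in these tables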;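 note: calls also rest on retests at 20 µM and on dose response follow-up; controls were probe without protein and protein plus probe with vehicle; some compounds called inactive have numbers as strong as hits; many hits fall short of the cut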
eIF4H inh: inhibitors of RNA binding by human eIF4H; Q15056; eIF4H fluorescence polarization binding assay; inhibition, % at 35 µM; hit rate 0.94% among 290,000; AID 2012;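 active = 50% or more with normal probe brightness, or confirmed in later tests; inconclusive = above 50% with abnormal brightness, or retests that disagree; inactive = below 50% or failed in later tests; about a fifth of its hits are not listed in these tables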;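 note: calls also rest on retests at 20 µM and on dose response follow-up; 0% = protein and probe with vehicle and 100% = probe without protein; strong numbers were not always called active; many hits fall short of the cut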
MT1-MMP act inh: blocks activation of human MT1-MMP | hit rate 0.061% among 360,000 | P50281 | HT1080 RFP-PRO-GFP cells, GFP/RFP ratio fluorescence, overnight; percent of plate control window, DMSO zero | AID 651647 | GFP/RFP ratio change, % at 20 µM;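 active = GFP/RFP ratio change of at least 30% with cell ATP level not reduced by more than half and red fluorescence within 50% of control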; note: strong numbers were not always called active
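Assay system: HT1080 cells carrying an RFP-PRO-GFP reporter | Dosing: Single dose of 20 µM compound, 1% DMSO final | Incubation: Cells overnight before dosing, compound overnight, 37 °C, 5% CO2 | Evaluation: GFP/RFP fluorescence ratio | Control set: DMSO and RFP-L50D-GFP cell wells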
Rce1 inhib: yeast Ras-converting enzyme inhibition; Q03530; yeast membranes, quenched prenylated peptide cleavage fluorescence; calls only; hit rate 0.27% among 290,000; AID 2563;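 active = fall in fluorescence gain of 50% or more versus controls, with final raw signal at or below 3038400; inconclusive = same 50% fall but final raw signal above 3038400; inactive = fall in fluorescence gain under 50%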;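 note: plate controls were neutral control wells for no effect and wells lacking membranes for full effect; tested at 10 µM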
Target sequence (Q03530 whole entry, looked up): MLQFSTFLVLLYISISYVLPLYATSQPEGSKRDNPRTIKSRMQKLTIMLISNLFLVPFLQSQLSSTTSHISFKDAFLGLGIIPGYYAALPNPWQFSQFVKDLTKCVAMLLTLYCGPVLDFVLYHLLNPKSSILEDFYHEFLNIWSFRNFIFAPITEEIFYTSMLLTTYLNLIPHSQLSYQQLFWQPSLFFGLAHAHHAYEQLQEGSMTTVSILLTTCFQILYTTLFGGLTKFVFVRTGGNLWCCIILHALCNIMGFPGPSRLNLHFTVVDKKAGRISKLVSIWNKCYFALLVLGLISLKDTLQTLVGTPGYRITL
eIF4H inh retest: second read-out of eIF4H inh, no call of its own (marks repeat the call); inhibition, %; compound at 20 µM; confirmation average;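 mean of two retest wells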
PABP FP inh retest: recorded beside PABP FP inh, whose call it bears; inhibition, %; compound at 20 µM; confirmation repeats;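 mean of two retest wells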
MT1-MMP act inh RFP: recorded beside MT1-MMP act inh, whose call it bears; RFP signal change, %; measured here: RFP expression control read;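 0 = vehicle wells; hits needed this value within 50% of zero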
Active calls of the source: *; i = inactive; ? = inconclusive; . = not tested or not shown; + = active, no number; & = joins results of further samples.

SMILES	HIV Env fusion	CSC inhib	UUG fidelity	PABP FP inh	eIF4H inh	MT1-MMP act inh	MT1-MMP act inh RFP	Rce1 inhib	others
CC(C)N1CCN(c2ccncc2S(=O)(=O)N2CCN(C)CC2)CC1	-1	.	-16	.	.	-1	3	.
COc1ccc(S(=O)(=O)CCC(=O)O)cc1	.	.	-4	7	12	-1	0	.
CCCCC(=O)Nc1cnc(NC(=O)c2cccs2)cc1C	-42	-4	-22	6	-2	2	-1	i
CC(=O)n1c(C=Nc2ccccc2)c(O)c2ccccc21	-33	0	.	-4	8	-7	2	i
COC(=O)c1ccc(NC(=S)NNC(=O)CC(C)C)cc1	-6	-10	-23	-4	-1	2	3	i
Fc1cccc(F)c1/C=C/c1ccc2ccccc2n1	-246	28	-50	-4	-9	-1	-1	i
CN(C)c1ccc(N=c2sc3ccccc3n2C)cc1	4	5	-11	-5	-1	-1	-2	i
CN1CCN(C(=S)NC(=O)c2ccccc2Cl)CC1	-14	9	-12	11	0	-7	1	+
O=C(CC1C(=O)NCCN1CC(c1ccccc1)c1ccccc1)NC1CC1 (stereo not given)	0	-7	.	7	1	0	4	i
O=C1C(=O)c2ccc(-c3ccccc3)cc2-c2ccccc21	-30	131*	-35	18	9	-37	-37	i
CCCOC(=O)c1ccc(Oc2c(-c3ccc(OCC)cc3O)n[nH]c2C)cc1	4	137*	-10	-2	0	3	-2	i
Cc1ccc(N(CC(O)CN2CCOCC2)S(=O)(=O)c2ccc3ccccc3c2)cc1 (stereo not given)	.	23	-12	0	45	-3	1	i
CCc1ccccc1NC(=O)CN1CCN(C(=O)C2CCN(C(=O)/C=C/c3ccccc3)CC2)CC1	-5	2	-6	.	.	8	-20	.
O=C(NCCC1CC1(Cl)Cl)Nc1ccccc1 (stereo not given)	-4	-5	-20	7	11	1	3	i
NS(=O)(=O)c1ccc(CNC(=O)NC2(c3ccccc3)CC2)cc1	17	7	13	-6	-5	-1	6	i
Cc1ccccc1OCCC(=O)OCC(=O)N(C)c1c(N)n(Cc2ccccc2)c(=O)[nH]c1=O	-5	-6	2	-2	-8	-1	3	i
Cc1cccc(C)c1NC(=O)C(C)N1CCCCC1 (stereo not given)	9	-3	-5	5	-1	2	4	i
Cc1sc(NC(=O)c2ccco2)c(C(c2cccnc2)N2CCN(CCO)CC2)c1C (stereo not given)	16	-10	-22	-5	2	-3	-2	i
CC(=O)Nc1ccc(N2C(=O)C3C4C=CC(CC4)C3C2=O)cc1 (stereo not given)	9	5	-15	11	-6	-3	3	i
O=C(CCCOc1ccccc1)Nc1ccccc1C(F)(F)F	2	-18	.	-5	-4	3	5	i
Cc1cc(C)cc(-n2nnn(C3C/C(=N/NC(N)=S)C4OCC3O4)c2=S)c1 (stereo not given)	-33	.	-27	-10	-3	0	-1	i
Cc1csc(NC(=O)CSc2nnc(NC(=O)COc3ccc(Cl)cc3)s2)n1	-11	2	12	9	-3	-1	1	i
COc1ccc2[nH]c(=O)c(C(c3nnnn3C(C)(C)C)N(Cc3ccco3)CC3CCCO3)cc2c1 (stereo not given)	.	13	-5	1	-3	-7	-8	i
CCN(CC)CCNC(=O)C1(O)c2cc(Br)ccc2NC(=O)N1c1ccc(Cl)cc1 (stereo not given)	-11	1	-1	-3	-5	0	3	i
CN(CC(=O)Nc1ccc(Cl)c(S(=O)(=O)N2CCOCC2)c1)C(=O)c1ccc(C#N)cc1	-4	.	-29	.	.	-1	-6	.
O=C(NCCCN=C1NS(=O)(=O)c2ccccc21)c1ccccc1Cl	-1	-8	-3	-8	6	-2	-2	i
CC(=O)Nc1ccc(SCC(=O)c2cc(C)n(Cc3cccs3)c2C)cc1	-151	106*	-8	12	0	3	0	i
COc1cc(Cl)ccc1OC1(C)CCN(Cc2ccccc2OC(F)F)C1 (stereo not given)	23	.	-18	.	.	-4	-2	.
CN(C)/C=C1\SC(=S)N(c2ccc(Br)cc2)C1=O	-10	4	-15	2	5	-33	58	i
O=C(c1cc(S(=O)(=O)N2CCOCC2)ccc1Cl)N1CCN(c2ccccn2)CC1	5	2	.	15	2	5	5	i

Entries from the list above containing fluorine (3):
SMILES	HIV Env fusion	CSC inhib	UUG fidelity	PABP FP inh	eIF4H inh	MT1-MMP act inh	MT1-MMP act inh RFP	Rce1 inhib	others
Fc1cccc(F)c1/C=C/c1ccc2ccccc2n1	-246	28	-50	-4	-9	-1	-1	i
O=C(CCCOc1ccccc1)Nc1ccccc1C(F)(F)F	2	-18	.	-5	-4	3	5	i
COc1cc(Cl)ccc1OC1(C)CCN(Cc2ccccc2OC(F)F)C1 (stereo not given)	23	.	-18	.	.	-4	-2	.

Following part.
SMILES	HIV Env fusion	CSC inhib	UUG fidelity	PABP FP inh	eIF4H inh	MT1-MMP act inh	MT1-MMP act inh RFP	Rce1 inhib	others
O=C(Nc1nnc(Cc2ccccc2F)s1)c1ccccc1Cl	-1	-16	-23	5	-6	3	-1	i
CCOC(=O)C1C(=O)CC(C)(O)C(C(=O)OCC)C1c1cccs1 (stereo not given)	.	-20	22	-1	-4	-1	5	i
COc1ccc(OC)c(CC(=O)Nc2ccc3c(c2)CCC3)c1	-3	1	-9	-3	0	-2	-2	i
C[C@H](CO)N1C[C@H](C)[C@@H](CN(C)Cc2ccc3c(c2)OCO3)Oc2c(NS(C)(=O)=O)cccc2C1=O	9	7	-21&-3	.	.	0	2	.
COC(=O)C(NNc1ccccc1)(NC(=O)c1ccccc1F)C(F)(F)F (stereo not given)	-27	-5	-9	7	-7	2	2	i
CCCCNC(=S)NNC(=O)c1csc(C)c1CC	.	4	.	9	-2	1	-1	i
S=C(Nc1ccc(Nc2ccccc2)cc1)Nc1ccccn1	33	7	.	-4	-8	-6	-24	i
COc1cc(CNCCO)ccc1OC1CCCC1	-18	-4	-17	-2	-5	.	.	i
Cc1ccc(-n2nnnc2CCl)cc1	-3	.	.	1	8	-1	3	i
O=C(Nc1ccnc(=O)[nH]1)c1sc2ccccc2c1Cl	-26	-4	-12	-7	-3	-5	-1	i
Cn1ccc2c(-c3ccc4c(c3)OCCO4)cc3c(c21)C1CCC3C1 (stereo not given)	0	.	-12	.	.	-4	1	.
COc1ccccc1CCNC(=O)C1(C)CC1(Cl)Cl (stereo not given)	3	-18	2	9	-4	-1	3	i
CCOC(=O)c1c(C)[nH]c(C(=O)N/N=C\c2ccccc2O)c1C	.	79*	-16	59*	14	-5	-10	i	eIF4H inh retest=37;PABP FP inh retest=124*
COc1ccc(NC(=O)CC2COc3ccccc3O2)c(OC)c1 (stereo not given)	.	-3	-9	-8	3	-3	-2	i
O=C(NCc1ccco1)c1cccc(-c2nnc(-c3ccccc3)o2)c1	.	.	-9	-4	-4	1	-5	i
CN(C)c1ccc(C(O)Cc2nc3ccccc3n2C)cc1 (stereo not given)	-131	-4	-61	-5	0	-10	-2	i
O=C(Nc1ncn[nH]1)c1cc([N+](=O)[O-])ccc1Cl	-8	9	-10	-3	-11	2	2	i
O=C(CSc1nccn1-c1ncc(C(F)(F)F)cc1Cl)c1ccc(Br)cc1	.	9	.	20	-1	-1	4	i
O=C(OCC(=O)N1CCCC1)c1cc(F)c(F)cc1Cl	5	-2	-9	9	-5	0	2	i
Cn1cc(C(=O)N2CCc3ccccc32)cn1	6	0	.	8	3	1	4	i
N#Cc1ccc(C(=O)Nc2cccc3cccnc23)c(F)c1	5	15	.	-4	-6	-3	5	i
Cc1ccc(S(=O)(=O)N2CCOC2CNC(=O)C(=O)NCc2cccnc2)cc1 (stereo not given)	-43	2	-15	2	-3	4	5	i
CC(C)COC(=O)C1C2C=CC3(CN(C(C)c4ccc(Br)cc4)C(=O)C13)O2 (stereo not given)	29	-16	11	-8	-10	3	0	i
COc1ccc(N2Cc3ccccc3C2=O)cc1	-34	34	-41	3	-1	2	-1	i
COc1cc2cnc(-c3ccccc3)c(-c3cccc(C(F)(F)F)c3)c2cc1OC	9	128*	-20	.	.	-7	-5	.
COc1cccc(-c2cc(C(=O)Nc3cccnc3)no2)c1	-483	49	-48	5	-8	10	9	i
O=C(C1CCN(S(=O)(=O)c2cccc3cccnc23)CC1)N1CCCCC1	9	-9	-15	1	-3	0	5	i
CN(Cc1ccc(Cl)cc1Cl)C(=O)CNC(=O)c1ccc2c(c1)OCO2	15	18	.	.	.	4	-1	i
CN(C)S(=O)(=O)c1ccc(-c2csc(N/N=C/c3ccc(O)cc3)n2)cc1	29	130*	-23	-1	-2	6	-27	i
C[C@H]1CN([C@@H](C)CO)C(=O)CCCn2nncc2CO[C@H]1CN(C)S(=O)(=O)c1ccc2ccccc2c1	19	.	10&1	.	.	6	1	.
CCOc1ccc(NS(=O)(=O)c2c(C)nc3sc(CC)nn3c2=O)cc1	-2	-1	-16	-5	2	4	-3	.
COC(=O)c1cc2ccsc2n1CC(=O)N(C)C1CCCCC1	31	-15	-18	6	-2	3	5	i
COc1ccc(NC(=O)CSc2nc3ccccc3c(=O)[nH]2)cc1S(N)(=O)=O	-71	-13	-15	.	.	-2	4	.
COc1ccc(-c2nc(NC(=O)C3CC(=O)N(c4ccc5c(c4)OCCO5)C3)sc2C)cc1 (stereo not given)	15	53	.	-4	0	2	-15	i
CN1CCC(N(C)C(=O)c2cc(-c3ccc(F)cc3)nc3ccccc23)CC1	.	37	1	.	.	0	1	.
O=C(NCCN1CCN(c2ccccc2)CC1)c1cccn2c(=O)c3cc(Cl)ccc3nc12	-70	-4	-3	7	-10	-1	-5	i
COc1ccccc1NS(=O)(=O)c1cc([N+](=O)[O-])ccc1N/N=C/c1c(C)[nH]c2ccccc12	9	11	-22	3	5	-141	-5	i
CCN1CCN(C(=O)c2ccc3c(=O)n(CCc4ccccc4)c(=O)[nH]c3c2)CC1	.	-10	-8	-5	-8	4	-2	i
O=C(O)CN1C(=O)S/C(=C\c2cccnc2)C1=O	9	-7	.	11	-10	-1	4	i
O=C(Cn1c(SCc2ccccc2)nc2ccccc21)N1CCOCC1	-8	-2	-14	-2	3	2	-1	i
O=C(/C=C/c1cc[n+](CC(=O)c2ccc3cccc4c3c2CC4)cc1)c1ccc2cccc3c2c1CC3	.	0	.	-40	-32	5	7	i
c1ccc(-c2ccc(Oc3cc(N4CCOCC4)nc(-c4ccccc4)n3)cc2)cc1	-28	-3	-3	2	-1	-3	-4	i
CN(C)C(/C=C/Nc1ccc(C#N)cc1)=C(C#N)C#N	.	.	-16	-2	-4	-3	0	i
O=C(O)CN=C(NS(=O)(=O)c1ccc(Cl)cc1)c1ccccc1	8	-12	-6	4	-2	-7	-1	i
COc1cc(/C=C/C(=O)N2CCN(C(=O)/C=C/c3cc(OC)c(OC)c(OC)c3)CC2)cc(OC)c1OC	.	-6	-1	4	-7	1	4	i
O=C(O)c1n[nH]c2c1CCCC2	.	0	1	6	4	3	8	i
Cc1cccc(C)c1OC1(c2ccccc2)OC(=O)c2ccccc21 (stereo not given)	?	4	-14	1	5	3	-6	i
CCCC(=O)NNC(=O)CC(=O)Nc1ccccc1C(=O)O	13	-5	-12	-9	-1	2	3	i

Reprinted at random: 2 records from the list.
SMILES	HIV Env fusion	CSC inhib	UUG fidelity	PABP FP inh	eIF4H inh	MT1-MMP act inh	MT1-MMP act inh RFP	Rce1 inhib	others
CCCC(=O)NNC(=O)CC(=O)Nc1ccccc1C(=O)O	13	-5	-12	-9	-1	2	3	i
c1ccc(-c2ccc(Oc3cc(N4CCOCC4)nc(-c4ccccc4)n3)cc2)cc1	-28	-3	-3	2	-1	-3	-4	i
